Assay outcomes as filed in PubChem BioAssay.
miR-21 reporter = qHTS Assay for Modulators of miRNAs and/orActivators of miR-21; HeLa miR-21 FLuc reporter, luciferase, 48 h; Potency, µM (series often up to 38.3 µM), for inactives: at the top dose reporter change, positive = more light; 340,000 tested, under 10 active; AID 2288, 2010; active = well fitted rising curve with a large enough effect; inconclusive = small, poorly fitted or top-dose-only effect; inactive = no such curve, though single readings can be large or run the other way;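 also: % of control where 0% means no effect; miR-21 action dims this reporter so a rising signal means less miR-21 action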
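HeLa cells stably expressing CMV-driven firefly luciferase with a downstream miR-21 binding sequence, endogenously expressing miR-21, were treated with titrations (up to about 40uM final) for 48 hours at 37 degree Celsius. Luciferase luminescence was read after lysis.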
Rango release inh = qHTS Assay for Inhibitors of RanGTP induced Rango (Ran-regulated importin-beta cargo) - Importin beta complex dissociation; Snurportin-1 (Homo sapiens) + GTP-binding nuclear protein Ran (Homo sapiens) + Importin …; Biochemical FRET Rango-importin beta, RanGTP-induced dissociation; Potency, µM (titrated, usually from 46.1 µM), without a hit: at the highest dose activity change, negative = inhibition; actives 0.071% (n = 340,000); AID 540253, 2011; active means falling FRET ratio curve, often poorly fitted, with flat reads before Ran was added; inconclusive means other falling curves, or compound fluorescence or quenching; inactive means flat or rising ratio curve;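 also: potency is read from the fitted curve at half-maximal effect; % of control where 0% means no effect; nearly all actives have a fitted effect of over 45% in size; -100% = wells without RanGTP and RCC1; the record marks most hits as doubtful in a second field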
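Rango (0.1 uM)–importin beta (0.25 uM) complex; RanGTP-RCC1 trigger; 45 min RT; CFP/YFP FRET read.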
Rango-impB inh = qHTS Assay for Inhibitors of Rango (Ran-regulated importin-beta cargo) - Importin beta complex formation. Importin subunit beta-1 (Homo sapiens), Q14974. Rango CFP/YFP FRET sensor + importin beta, 45 min. Potency, µM (top dose mostly 92.2 µM), inactives show top-dose inhibition of complex formation. actives 0.031% (n = 340,000); active = rising FRET ratio curve, often small or poorly fitted; inconclusive = mostly compound fluorescence or quenching in the first reads; inactive = flat curves in all reads;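 also: potency is read from the fitted curve at half-maximal effect; 0% = DMSO wells and 100% = buffer wells lacking importin beta; nearly all actives have a fitted effect of over 15% in size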
Target sequence (Q14974 whole entry, looked up): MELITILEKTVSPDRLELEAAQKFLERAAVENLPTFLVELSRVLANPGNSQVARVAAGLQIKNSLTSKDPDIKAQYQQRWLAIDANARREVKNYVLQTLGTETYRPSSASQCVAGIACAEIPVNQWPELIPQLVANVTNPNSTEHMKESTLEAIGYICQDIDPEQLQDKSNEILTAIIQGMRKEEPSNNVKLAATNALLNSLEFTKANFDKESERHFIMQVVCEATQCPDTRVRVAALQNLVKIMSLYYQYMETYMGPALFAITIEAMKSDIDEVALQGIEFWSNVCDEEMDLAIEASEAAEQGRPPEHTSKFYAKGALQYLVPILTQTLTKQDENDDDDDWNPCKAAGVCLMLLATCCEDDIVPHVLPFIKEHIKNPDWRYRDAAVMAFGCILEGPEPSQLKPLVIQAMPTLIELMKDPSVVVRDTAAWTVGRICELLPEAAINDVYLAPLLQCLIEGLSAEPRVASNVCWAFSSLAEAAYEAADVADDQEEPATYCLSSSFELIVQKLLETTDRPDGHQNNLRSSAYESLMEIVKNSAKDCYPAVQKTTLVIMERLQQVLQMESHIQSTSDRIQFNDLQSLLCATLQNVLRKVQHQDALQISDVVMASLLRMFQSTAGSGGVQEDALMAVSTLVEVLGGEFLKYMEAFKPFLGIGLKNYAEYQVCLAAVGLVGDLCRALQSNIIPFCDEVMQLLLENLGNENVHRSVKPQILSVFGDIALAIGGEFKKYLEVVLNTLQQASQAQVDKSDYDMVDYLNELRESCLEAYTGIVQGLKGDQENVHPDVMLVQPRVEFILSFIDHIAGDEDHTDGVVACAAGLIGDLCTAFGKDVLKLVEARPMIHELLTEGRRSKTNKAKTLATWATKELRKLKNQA
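FRET biosensor Rango (snurportin 1 IBB between N-terminal EYFP and C-terminal Cerulean), 50 nM in PBS/1 mM DTT/0.02% Tween-20/0.1% BSA, preincubated 5 min RT with compound; 0.125 microM importin beta added, 45 min RT, CFP/YFP FRET ratio read.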
GLA inh pH 4.5 = qHTS Assay for Inhibitors of Human alpha-Galactosidase at pH 4.5 | Alpha-galactosidase A (Homo sapiens), P06280 | purified enzyme, 4-MU-alpha-Gal fluorescence, pH 4.5 | activity change, negative = inhibition, % at 105 µM | 230,000 tested, under 10 active; inconclusive = small, poorly fitted or top-dose-only inhibition, or a rising curve; inactive = flat fitted curve, though single readings scatter; no compound was filed as active;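 also: 0% = full activity with enzyme and -100% = basal without enzyme; dose as in the result columns while the protocol names 77 µM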
Active calls of the source: *; u = inconclusive; x = not tested or not shown; & = joins results of further samples. The list is partial; rates above refer to the full screens.

SMILES,miR-21 reporter,Rango release inh,Rango-impB inh,GLA inh pH 4.5
CCC1(CC)C(=O)Nc2ccccc21,x,34%,-0.9%,x
CCCSc1nc(N)nc2c1ncn2C1OC(CO)C(O)C1O (configuration not stated),x,1%,0.1%,x
COc1cc(CN(C)c2ccc(S(=O)(=O)N3CCCC3)cn2)ccc1OC(F)F,x,0%,-0.2%,x
Cc1ccc(C)n1-c1cc(S(=O)(=O)N2CCOCC2)ccc1N1CCCC1,1%,-19%,u,-8
CCOC(=O)NNC(=O)c1ccc(Cl)cc1,-23%,-7%,0.5%,4
COc1ccc(C(C)C)cc1S(=O)(=O)Nc1ccccn1,-8%,0%,0.1%,2
COc1cccc(/C=C2\SC(=S)N(CCC(=O)N3CCCCC3)C2=O)c1,4%,-5%,-0.3%,x
CC1(C)Cc2c(sc3[nH]c(=S)[nH]c(=O)c23)CO1,0%,-6%,-1.1%,-3
COc1ccc(C(=O)CC(=O)C(=O)Nc2cc(OC)c(OC)c(OC)c2)cc1,-3%,-13%,5.4%,x
O=C(OCc1nnc(-c2ccccc2)o1)c1ccc2c(c1)OCCO2,-21%,-19%,0.2%,-11
O=C(NCc1cn2ccsc2n1)Nc1ccc(Cl)cc1,-9%,1%,3.3%,4
Cc1ccc(S(=O)(=O)N(CCC(=O)NCc2ccc(S(N)(=O)=O)cc2)c2ccccc2)cc1,x,6%,0.0%,x
CCOC(=O)C1(CC2CC2)CCN(C(=O)c2ocnc2C)CC1,-42%,1%,0.1%,3
CC1(C)C(=O)Nc2ccccc2N1C(=O)COC(=O)c1cc(S(C)(=O)=O)ccc1Cl,x,-4%,-2.0%,x
N/C(CS(=O)(=O)c1ccccc1)=N\OC(=O)c1ccc(F)cc1,-51%,3%,4.7%,x
NS(=O)(=O)c1ccc(CNC(=O)Cc2cccs2)cc1,-1%,4%,0.3%,x
COc1cccc(C(=O)N2CCN(Cc3cc(Br)ccc3OC)CC2)c1,-9%,12%,1.9%,-1
COc1ccc2nc(SC(C)C(=O)NC3CCCCC3)[nH]c2c1 (configuration not stated),x,-15%,0.1%,x
Cc1cc(NC(=O)CSc2nccn2-c2cccc(C)c2C)no1,24%,0%,-1.3%,-20
Cc1ccc(CN(C)C(=O)CCc2nc3sc4c(c3c(=O)[nH]2)CCCC4)o1,0%,-20%,u,x
CCN(CC)S(=O)(=O)c1ccc(C)c(NC(=O)CN2C(=O)NC3(CCCC3)C2=O)c1,3%,-8%,1.9%,x
COc1ccc(CNC(=O)C2CCN(S(C)(=O)=O)CC2)c(OC)c1,-2%,1%,-1.1%,3
CCOc1ccc(N/C(=C(/C(Cl)=C(Cl)Cl)[N+](=O)[O-])n2cncn2)cc1,5%,x,x,4
CCOc1ccc(-c2[nH]ncc2Oc2cccc(OC)c2)c(O)c1,-11%,36%,3.7%,-5
CC1(C)CC(=O)C=C(c2ccc3c(c2)OCO3)C1,x,-7%,-1.2%,x
COc1ccc([C@H]2CC(=O)C=C(c3cc(C=O)ccc3OC)C2)cc1,x,1%,3.6%,x
O=S(=O)(c1cc(Cl)ccc1Cl)n1nnc2ccccc21,-2%,1%,2.8%,-7
CCN=C1SC(CC(=O)NCc2ccccc2)C(=O)N1CC (configuration not stated),-4%,1%,2.3%,-13
COC(=O)c1ccc(S(=O)(=O)N2CCCC2)o1,1%,20%,-0.1%,3
CC(C)NC(=O)CSCc1c(F)cccc1Cl,-12%,-3%,-0.1%,7
CSCCC(NS(=O)(=O)c1ccccc1F)C(=O)NCC(c1ccc(F)cc1)N1CCOCC1 (configuration not stated),x,-5%,0.0%,x
COc1nc(-c2ccccc2)nc(-c2ccccc2)c1C,x,-7%,-3.2%,x
Cc1c(NS(=O)(=O)c2ccc(C(=O)N(C)Cc3cccc(Cl)c3Cl)cc2)c(=O)n(-c2ccccc2)n1C,x,-5%,2.3%,x
c1ccc2c(c1)CCc1c(-c3ccncc3)n[nH]c1-2,x,-17%,2.7%,x
CCOC(=O)N1CCN(C(=O)CN(c2ccc(OC)cc2)S(C)(=O)=O)CC1,-3%,-3%,4.7%,u
CCS(=O)c1ccccc1C(=O)OC(C)C(=O)Nc1ccc(S(=O)(=O)N2CCCC2)cc1 (configuration not stated),x,0%,-5.2%,x
O=C(CSc1nc(O)cc(=O)[nH]1)N1CCOCC1,3%,-25%,-0.4%,x
O=C(Cn1ccc([N+](=O)[O-])n1)Nc1nccs1,2%,1%,-3.3%,-8
COc1ccc(CCNC(=S)N2CCC(C(N)=O)CC2)cc1,-2%,16%,-1.7%,5
Cn1c(CNC(=O)c2ccccc2F)nnc1SCC(=O)c1ccccc1,2%,-3%,-0.1%,x
CSc1nnc([C@@H](NC(=O)OC(C)(C)C)C(C)C)o1,-3%,-4%,-2.8%,8
OCCN(CC#CCC(O)(c1ccccc1)C1CCCC1)CCO (configuration not stated),0%,1%,3.3%,-1
CCOC(=O)C1C(=O)CC(C)(O)C(C(=O)OCC)C1c1ccc(F)cc1 (configuration not stated),-1%,-14%,-5.2%,3
Cc1ccc(Cl)cc1NC(=O)C1CCCN1S(=O)(=O)c1ccc(-c2ccc(=O)[nH]n2)s1 (configuration not stated),0%,-2%,-0.5%,x
Cn1c(=O)c2c(nc(NCc3ccco3)n2C/C=C/c2ccccc2)n(C)c1=O,18%,-8%,-2.0%,4
Cc1cc2c(nc1C)CCCN2C[C@@H](C)O/N=C1/[C@H]2CCn3c(=O)n(-c4ccccc4)c(=O)n3[C@H]2[C@H](O)[C@@H]2O[C@H]12,-4%,u,u,-6
CC(=O)NCC12CC3CC(C1)CC(C(=O)O)(C3)C2,-4%,12%,-0.1%,-8
CC(=O)N1CCc2c(sc(NC(=O)CCS(=O)(=O)c3ccc(C)cc3)c2C#N)C1,x,-3%,-1.1%,x
O=C(NC(=S)N1CCCCCC1)c1cccc([N+](=O)[O-])c1,x,-2%,-0.8%,x
Cc1c(Cl)cccc1NC(=S)/C(=C(\[O-])c1ccc(Cl)s1)[n+]1ccccc1,-7%,-12%,0.9%,4
Cc1nc(SCC(=O)Nc2ccc3c(c2)OCO3)c(C#N)c2c1CCCC2,-31%,0%,3.0%,-6
Cn1c(SCC(=O)Nc2nccs2)nnc1-c1ccc(S(=O)(=O)N2CCCC2)cc1,2%,-3%,-2.5%,-1
O=C1C=C(c2ccc3c(c2)oc2ccccc23)C[C@@H](c2ccc3c(c2)OCO3)C1,x,20%,-1.6%,x
O=C(COc1ncnc2c(Cl)cc(Cl)cc12)NCCC1=CCCCC1,3%,-4%,0.3%,-3
CCCc1nn(C)c(C(=O)Nc2cccc3ccccc23)c1Cl,-22%,-11%,-3.1%,2
O=C(CSc1nnc(-c2ccccc2)c(-c2ccccc2)n1)Nc1ccc(Br)cn1,27%,u,0.2%,-14
COc1c(Cl)cc(C(=O)O)cc1Cl,x,-3%,-1.0%,x
O=C(COC(=O)c1cc(S(=O)(=O)N2CCCC2)ccc1O)NCCc1ccccc1,x,-8%,1.2%,x
C=CCOc1c(Br)cc(CNc2ccc(NC(=O)CCC)cc2)cc1OCC,9%,-18%,-1.6%,-21
CC(C)(C)c1ccc(S(=O)(=O)N2CCC(O)(c3ccc(Cl)cc3)CC2)cc1,14%,9%,-6.8%,-11

(more compounds)
SMILES,miR-21 reporter,Rango release inh,Rango-impB inh,GLA inh pH 4.5
O=C1CCCN1c1ccc(N2CCCC2=O)cc1,-2%,12%,1.1%,x
CC(=O)Nc1cccc(N=NN2CCCCC2)c1,-33%,-2%,-2.5%,9
COc1ccc(NC(=O)c2ccc(NC(=O)CN3CCN(c4ccc(O)cc4)CC3)cc2)cc1,x,3%,-3.5%,x
Clc1cccc(-c2nc3nc4ccccc4nc3n2Cc2ccccc2)c1,0%,-16%,0.0%,-3
O=C(c1ccccc1[N+](=O)[O-])N(CCc1ccccc1)Cc1ccccc1,-1%,9%,-2.9%,x
CS(=O)(=O)N(CC(=O)N1CCCCCC1)Cc1ccc(Cl)cc1,-3%,u,-0.9%,-2
CCN(C(=O)CSc1nnnn1-c1ccccc1OC)C1CCS(=O)(=O)C1 (configuration not stated),x,-11%,-1.0%,x
Cc1ccc(C2N(c3ccc(Cl)cc3)C(=O)N3CCCN23)cc1 (configuration not stated),-14%,-6%,0.5%,0
CC(C)NC(=O)NC(=O)CSc1ncc(C(F)(F)F)cc1Cl,-10%,1%,-4.6%,-2
CNc1c(N)n(Cc2ccccc2)c(=O)[nH]c1=O,1%,u,u,2
O=C(CSc1nnnn1-c1ccccc1)NCCCN1CCCC1=O,x,-9%,6.4%,x
Cc1cccn2c(=O)c3cc(C(=O)NCC4CCCO4)c(=N)n(C4CCCC4)c3nc12 (configuration not stated),-3%,u,u,x
Cn1c(C(C(=O)NCC2CCCO2)N(CCc2ccccc2)C(=O)Cn2nnc3ccccc32)nc2ccccc21 (configuration not stated),-6%,-9%,-0.2%,-3
CCOC(=O)N1CCN(C(=O)c2ccc(N(Cc3ccccc3)S(C)(=O)=O)cc2)CC1,-8%,5%,0.5%,3
CCN(c1ccc(C)c(C)c1)S(=O)(=O)c1c(C)[nH]c(=O)[nH]c1=O,1%,0%,0.5%,-2
Cn1c(SCC(=O)N2c3ccccc3Sc3ccccc32)nnc1-c1ccco1,1%,u,0.1%,-4
CCC(C)(C(=O)NC1CCCCC1)N(Cc1ccco1)C(=O)Cc1cccs1 (configuration not stated),1%,-3%,-3.1%,10
O=C(N/N=C/c1ccccc1)c1cccc2ccccc12,x,5%,2.1%,x
CC(C)(C)OC(=O)N1CCC(NC(=O)c2nc[nH]c2C(=O)N2CCc3ccccc3C2)CC1,x,8%,-1.6%,x
COc1cc(CCCN2C(N)=NC[C@@H]2Cc2ccccc2)cc(OC)c1OC,1%,-1%,-1.2%,0
COC(=O)CCC(=O)NC(=S)Nc1ccc(S(=O)(=O)N2CCCC2)cc1,3%,19%,0.6%,-10
CCCC12CN3CCN(CC(C3)/C1=N\NC(=O)c1ccccc1N)C2,-44%,1%,-4.5%,6
CCCn1c(=O)c2c(nc(Br)n2CCC)n(C)c1=O,-8%,6%,-1.1%,4
C=CCSc1nnc(-c2cc(Br)ccc2N)c(=O)[nH]1,-7%,19%,0.3%,-3
Cc1ccc(Cn2ncn3c(cc4ccccc43)c2=O)cc1,0%,3%,-1.0%,4
O=C(Nc1ccnn1C1CCN(CCCc2ccccc2)CC1)c1ccccc1,-8%,-8%,6.2%,x
COc1ccc([C@@H]2[C@@H]3C(=O)N(C(C)(C)C)C(=O)[C@@H]3[C@]3(Cc4ccccc4)C(=O)N(c4ccc(Br)cc4)C(=O)N23)cc1,-20%,10%,11%,x
Cc1ccc2c(c1)sc1nc(=O)n(-c3cccc(Cl)c3)c(=O)n12,-54%&-38%,-1%,-1.1%,5
CCOC(=O)C(NC(=O)C1CCCN1C(=O)OCc1ccccc1)C(=O)OCC (configuration not stated),-9%,3%,3.5%,5
CCCc1ccc(C(=O)NNc2ccc(F)cc2)cc1,0%,2%,4.7%,-8
O=C(c1ccccc1)N1CN2CN(C(=O)c3ccccc3)CC([N+](=O)[O-])(C2)C1,-1%,-14%,-2.0%,3
